Yeast UUG start: modulators of yeast start codon fidelity, primary screen, whole organism, S. cerevisiae, single point, plate reader | S. cerevisiae UUG-firefly luciferase reporter, luminescence/redox ratio | activity score, % at 18.7 µM | 0.13% of 350,000 active;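 active = replicate mean at a twofold rise or more, about +100% in these data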;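 note: firefly luciferase made from a UUG start codon reports start codon fidelity; reporter light over untreated wells divided by growth signal over untreated wells; some hits fall short of that in this replicate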
Env fusion inh: inhibitors of HIV-1 Env-driven cell-cell fusion, primary screen, HeLa-JRFL effector, CEM21 target cells, luciferase | inhibition, % at 12.3 µM | 1.1% of 360,000 active;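 active = mean replicate inhibition score of at least 50 and every replicate individually at or above 50; inconclusive = only one of the two criteria met; inactive = mean below 50 and not all replicates reaching 50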;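 note: 0% = plate neutral controls and 100% = maraviroc near 300 nM; one replicate is shown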
CSC inhib: cancer stem cell viability inhibitors, primary screen, luminescence; cancer stem cell-like cells viability; inhibition, % at 7.5 µM; 1.1% of 300,000 active;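 active = mean at 75% or more and at least half the replicates too; inconclusive = mean and replicates disagree; tested in HMLE shEcad cells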;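 note: 0% = median of negative and 100% = median of positive control wells; the first replicate is given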
MT1-MMP act inh: blockers of MT1-MMP proenzyme processing, primary screen, HT1080 RFP-PRO-GFP cells, GFP/RFP fluorescence; Matrix metalloproteinase-14 (Homo sapiens), P50281; GFP/RFP ratio fluorescence, overnight; percent of plate control window, DMSO zero; GFP/RFP ratio change, % at 20 µM; 0.061% of 360,000 active; AID 651647, 2012;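 active = GFP/RFP ratio change of at least 30% with cell ATP level not reduced by more than half and red fluorescence within 50% of control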; note: strong numbers were not always called active
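Assay system: HT1080 RFP-PRO-GFP cells. Benchmarks: DMSO vehicle wells and RFP-L50D-GFP reporter cell wells. Times: overnight cell settling, then overnight compound exposure, 37 °C, 5% CO2. Compound: 20 µM single dose, 1% DMSO. Read-out basis: GFP/RFP fluorescence ratio.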
MT1-MMP act inh RFP: recorded beside MT1-MMP act inh, whose call it bears; RFP signal change, %; measured here: RFP expression control read;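 0 = vehicle wells; hits needed this value within 50% of zero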
* = called active by the depositor; ? = inconclusive; . = no result given; & = joins results of further samples; [ ] = dose if it differs, or a comment. The list is partial; the hit share may differ from the screen's.

cpd	smiles	Yeast UUG start	Env fusion inh	CSC inhib
1	Cc1ccc(-n2c(=O)[nH]c3ccccc3c2=O)cc1[N+](=O)[O-]	.	.	.
2	CC(=O)OC1C2(CC3N4C(=O)C5(CO)SSC4(CC31O)C(=O)N5C)OC(C)C(C)(C)C2=O (stereo not given)	.	.	.
3	O=C(NN=Cc1ccc(N(CCCl)CCCl)cc1)c1cccc([N+](=O)[O-])c1	.	.	.
4	CSc1ccccc1NP1(=O)OCC(C)([N+](=O)[O-])CO1 (stereo not given)	.	.	.
5	CN(Cc1cccc(-c2ccncc2)c1)C(=O)Oc1ccc([N+](=O)[O-])cc1	.	.	.
6	ClCCN(CCCl)c1ccc(C2=NCCc3ccccc32)cc1	.	.	.
7	C[C@]12CCC3C(CC[C@H]4C[C@@H](O)CC[C@]34C)C1C[C@@H](Br)[C@@H]2O (stereo not given in full)	.	-5	6
8	COC1=CC(=O)[C@]2(C=C1OC)OC[C@@H]1Oc3c(ccc4c3C=CC(C)(C)O4)C(=O)[C@@H]12	.	49	4

cpd	MT1-MMP act inh	MT1-MMP act inh RFP
1	-2	-2
2	-40	-28
3	9	9
4	-1	3
5	1	-29
6	5	-2
7	.	.
8	.	.

Later entries
cpd	smiles	Yeast UUG start	Env fusion inh	CSC inhib
9	COC(=O)C[C@H]1CC[C@@H]2NC[C@@H](O)COC[C@H]2O1	-13	-8[16.7 µM]	.
10	CCC1(CC(C)c2ccccc2)C(=O)NC(=O)NC1=O (stereo not given)	-5	.	.
11	CN1C2CCC1C(C(=O)O)C(OC(=O)c1ccccc1)C2 (stereo not given)	-2	.	.
12	COc1ccc2c3c1OC1[C@H](O)CCC4[C@@H](C2)N(C)CC[C@]314 (stereo not given in full)	-13	.	.
13	C[C@]12C=CC(=O)C=C1CC[C@@H]1[C@@H]2CC[C@]2(C)C(=O)CC[C@@H]12	-5	.	.
14	CCC(C)c1cnc(CC(C)C)c(=O)n1O (stereo not given)	-3	.	.
15	O=[N+]([O-])c1ccc(N2CC2)c([N+](=O)[O-])c1	0	.	.
16	C[C@]12C[C@H](O)[C@@H](O)C[C@@H]1CC[C@@H]1[C@@H]2CC[C@]2(C)C(=O)CC[C@@H]12	14	.	.

cpd	MT1-MMP act inh	MT1-MMP act inh RFP
9	.	.
10	1	4
11	-3	6
12	-6	4
13	3	0
14	3	5
15	1	5
16	3	3

More structures:
cpd	smiles	Yeast UUG start	Env fusion inh	CSC inhib
17	O=C1/C(=C/c2ccccc2)C[C@@]2(O)[C@H]3Cc4ccc(O)c5c4[C@@]2(CCN3CC2CC2)C1O5 (stereo not given in full)	1	.	.
18	Nc1ccc(Cc2ccc(N)c(Cl)c2)cc1Cl	-9	.	.
19	O=C1NC(=O)C2(CCCc3ccc(N(CCCl)CCCl)cc32)N1 (stereo not given)	1	.	.
20	CCOC(=O)c1ccccc1N	-15	.	.
21	O=C1c2ccccc2-c2cccc3cccc1c23	13	.	.
22	C[C@]12CCC(=O)C[C@@H]1CC[C@@H]1[C@@H]2CC[C@]2(C)[C@@H](O)CC[C@@H]12	-19	.	.
23	O=P(Oc1ccc(-c2ccccc2)cc1)(N1CC1)N1CC1	-7	.	.
24	C[C@@H]1CN([C@@H](C)CO)C(=O)CCCn2cc(nn2)CO[C@H]1CN(C)C(=O)Oc1ccc2ccccc2c1	-3&7	.	.

cpd	MT1-MMP act inh	MT1-MMP act inh RFP
17	-7	-29
18	-6	-8
19	5	6
20	2	5
21	-11	-1
22	1	-3
23	2	1
24	1	4

(list continues)
cpd	smiles	Yeast UUG start	Env fusion inh	CSC inhib
25	COC(=O)[C@@H]1C(OC(=O)c2ccccc2)CC2CCC1N2C (stereo not given in full)	-17	.	.
26	CC1=CC(=O)OC2CC3OC4C[C@@H](C)C5OC6CC7O[C@]8(C)C/C=C\C9OC%10CC%11OC(CC(C)C%12OCCO%12)CC(O)[C@]%11(C)OC%10CC9OC8C[C@]7(C)O[C@]6(C)CCC5OC4C[C@]3(C)OC12 (stereo not given in full)	9	.	.
27	CCCC[C@@H](C)C[C@@H](C)C(=O)N(C)[C@@H](CC(C)C)C(=O)N[C@H](C(=O)N(C)[C@H](C(=O)N1C[C@@H](O)C[C@H]1C(=O)N1C(=O)C=C[C@@H]1C)C(C)C)C(C)OC(C)=O (stereo not given in full)	-12	.	.
28	COC(=O)C1C2CC[C@@H](CC1OC(=O)c1ccccc1)N2 (stereo not given in full)	4	.	.
29	COC(=O)C1=C(c2ccc(OCc3ccccc3)cc2)C[C@@H]2CC[C@H]1N2C(=O)NCc1cccc(F)c1	-6	.	.
30	Cc1cccc(-n2c(CN3C(=O)c4ccccc4C3=O)nc3ccccc3c2=O)n1	-6	.	.
31	CCC1C2CC3C4N(C)c5ccccc5C45CC(C2C5O)N3C1O (stereo not given)	6	.	.
32	CC(CC(C#N)(c1ccccc1)c1ccccc1)N(C)C (stereo not given)	-7	.	.

cpd	MT1-MMP act inh	MT1-MMP act inh RFP
25	0	7
26	12	-3
27	-11	-29
28	-3	5
29	-11	-26
30	0	1
31	2	4
32	-6	1

Going on with the list.
cpd	smiles	Yeast UUG start	Env fusion inh	CSC inhib
33	Cc1ccccc1O	-15	.	.
34	CS(=O)(=O)c1ccc(C2=C(CNC(=O)c3cccs3)[C@H]3CC[C@@H](C2)N3Cc2ccccc2)cc1	-5	.	.
35	CS(=O)(=O)c1ccc(C2=C(CNC(=O)c3ccncc3)[C@H]3CC[C@@H](C2)N3Cc2ccco2)cc1	-10	.	.
36	Cc1cccc(NC(=O)COC(=O)c2cc(C)n(C3CC3)c2C)c1	-11	.	.
37	O=C1NC(=O)C2(CCN(S(=O)(=O)c3ccccc3)CC2)C(=O)N1	-12	.	.
38	O=c1ccc2c(O)c3ccoc3cc2o1	-24	.	.
39	C=C1C(=O)OC2CC3(C)OC3C3OC3C3=CC(OC3=O)C12 (stereo not given)	-7	.	.
40	CCOC(=O)C1(c2ccccc2)CCN(CC(=O)c2ccc(NC(C)=O)cc2)CC1	-2	.	.

cpd	MT1-MMP act inh	MT1-MMP act inh RFP
33	-3	3
34	2	6
35	2	6
36	-5	0
37	1	1
38	3	0
39	5	4
40	-1	4

Next results
cpd	smiles	Yeast UUG start	Env fusion inh	CSC inhib
41	O=C(Cc1c[nH]c2ccccc12)NNCc1ccc(N(CCCl)CCCl)cc1	-9	.	.
42	CN1CCC23c4c5ccc(O)c4O[C@@H]2[C@H](O)C=CC3C1C5 (stereo not given in full)	-17	.	.
43	CC1(O)CCC2C3CCC4=CC(=O)CCC4(C)C34OC4CC21C (stereo not given)	3	.	.
44	COc1cccc2c1N=C1CCCC3CN(C(C)=O)CCC123 (stereo not given)	-13	.	.
45	O=c1[nH]c2ccccc2n1C1CCN(C(c2nnnn2C2CCCCC2)C2CC2)CC1 (stereo not given)	4	.	.
46	CC(C)=CCN1CC[C@@]2(C)c3cc(O)ccc3CC1C2C (stereo not given in full)	-13	.	.
47	COC1=CC23CCCN2CCc2cc4c(cc2C3C1O)OCO4 (stereo not given)	5	.	.
48	CCOC(=O)c1cccc(C2=C(CNC(C)=O)[C@H]3CC[C@@H](C2)N3Cc2ccccc2)c1	-1	.	.

cpd	MT1-MMP act inh	MT1-MMP act inh RFP
41	1	-2
42	-5	1
43	4	5
44	1	2
45	-2	-2
46	-5	5
47	0	1
48	8	10

The list continues.
cpd	smiles	Yeast UUG start	Env fusion inh	CSC inhib
49	CC[C@H](C)/C=C(C)/C=C/C1=CC2=C(Cl)C(=O)[C@](C)(OC(C)=O)C(=O)C2=CO1	2	.	.
50	CNC(C)Cc1ccccc1 (stereo not given)	-22	.	.
51	CC[C@H](OC(C)=O)C(C[C@H](C)N(C)C)(c1ccccc1)c1ccccc1	-9	.	.
52	COc1cc([N+](=O)[O-])c2nc(C)ccc2c1[N+](=O)[O-]	.	3	.
53	CCOC(=O)[C@]12Cc3cc(C)ccc3[C@H]1N(C)C(=O)c1ccccc12	.	-6	.
54	CCOC(=O)[C@]12Cc3c(cc(OC)c(OC)c3OC)[C@H]1N(C(C)C)C(=O)c1ccccc12	.	3	.
55	CC1(C)CC2CCC(O)C2C(CCO)N1 (stereo not given)	.	-7	.
56	CC(CC(C)(C)N1CC1)=NO	.	-4	.

cpd	MT1-MMP act inh	MT1-MMP act inh RFP
49	1	2
50	1	9
51	-3	-7
52	6	8
53	-1	-2
54	1	-2
55	3	4
56	0	3

12 entries from above, screen by screen.
42. CN1CCC23c4c5ccc(O)c4O[C@@H]2[C@H](O)C=CC3C1C5 (stereo not given in full)
43. CC1(O)CCC2C3CCC4=CC(=O)CCC4(C)C34OC4CC21C (stereo not given)
44. COc1cccc2c1N=C1CCCC3CN(C(C)=O)CCC123 (stereo not given)
45. O=c1[nH]c2ccccc2n1C1CCN(C(c2nnnn2C2CCCCC2)C2CC2)CC1 (stereo not given)
46. CC(C)=CCN1CC[C@@]2(C)c3cc(O)ccc3CC1C2C (stereo not given in full)
47. COC1=CC23CCCN2CCc2cc4c(cc2C3C1O)OCO4 (stereo not given)
48. CCOC(=O)c1cccc(C2=C(CNC(C)=O)[C@H]3CC[C@@H](C2)N3Cc2ccccc2)c1

assay / compound | 42 | 43 | 44 | 45 | 46 | 47 | 48
Yeast UUG start | -17 | 3 | -13 | 4 | -13 | 5 | -1
Env fusion inh | . | . | . | . | . | . | .
CSC inhib | . | . | . | . | . | . | .
MT1-MMP act inh | -5 | 4 | 1 | -2 | -5 | 0 | 8
MT1-MMP act inh RFP | 1 | 5 | 2 | -2 | 5 | 1 | 10

49. CC[C@H](C)/C=C(C)/C=C/C1=CC2=C(Cl)C(=O)[C@](C)(OC(C)=O)C(=O)C2=CO1
50. CNC(C)Cc1ccccc1 (stereo not given)
51. CC[C@H](OC(C)=O)C(C[C@H](C)N(C)C)(c1ccccc1)c1ccccc1
52. COc1cc([N+](=O)[O-])c2nc(C)ccc2c1[N+](=O)[O-]
53. CCOC(=O)[C@]12Cc3cc(C)ccc3[C@H]1N(C)C(=O)c1ccccc12

assay / compound | 49 | 50 | 51 | 52 | 53
Yeast UUG start | 2 | -22 | -9 | . | .
Env fusion inh | . | . | . | 3 | -6
CSC inhib | . | . | . | . | .
MT1-MMP act inh | 1 | 1 | -3 | 6 | -1
MT1-MMP act inh RFP | 2 | 9 | -7 | 8 | -2

Continuation.
cpd	smiles	Yeast UUG start	Env fusion inh	CSC inhib
57	COC(=O)[C@@H]1N=C(c2ccc(OC)cc2)O[C@]12C(=O)N(C)c1cccc(Cl)c12	.	4	.
58	CC(C)(OOC1(c2ccccc2)NC(=O)c2ccccc21)c1ccccc1 (stereo not given)	.	0	.
59	Cc1ccccc1NC(=NCCCN1CC1)Nc1ccccc1C	.	12	.
60	Cc1cccc(N2CCC3(CC2)C(=O)NC(=O)NC3=O)c1	.	3	.
61	CCOC(=O)[C@]12Cc3ccc(C)cc3[C@H]1N(C1CCCCC1)C(=O)c1cc(OC)ccc12	.	-15	.
62	O=C(NC1CC1)c1cn(Cc2ccccc2)nc1-c1ccccc1	.	0	.
63	NN=C1C(Cl)=C(Cl)C(Cl)=C1Cl	.	-9	.
64	O=C1NC2C(=CC(O)C(O)C2O)c2cc3c(c(O)c21)OCO3 (stereo not given)	.	64*	.

cpd	MT1-MMP act inh	MT1-MMP act inh RFP
57	4	2
58	2	4
59	5	6
60	0	3
61	-32	-36
62	1	0
63	5	-1
64	-38	-38

Additional entries.
cpd	smiles	Yeast UUG start	Env fusion inh	CSC inhib
65	c1ccc(CN2Cc3ccccc3-n3nncc3C2)cc1	.	30	.
66	COc1ccc(C2=CC(c3ccc4c(c3)OCO4)c3c(c4ccccc4oc3=O)O2)cc1OC (stereo not given)	.	-42	.
67	Cc1cc(C)c(C)c(C(O)(C(=O)O)c2ccccc2)c1 (stereo not given)	.	-8	.
68	Cc1nc(C)c(C(=O)NN=Cc2ccc(N(CCCl)CCCl)cc2)s1	.	?	.
69	COC(/C(C)=C/C=C/C(C)=C/c1coc(C)n1)C(C)C1CC(O)C2(C)OC2C=CC(C)C2CC(CC(=O)O2)CC2OC2C(=O)O1 (stereo not given)	.	8	.
70	CC=C(CC)C1(CC)C(=O)NC(=S)NC1=O	.	11	.
71	O=C1NC(=O)C(=Cc2c(Cl)cccc2Cl)C(=O)N1	.	-15	.
72	O=c1c([N+](=O)[O-])cn(O)cc1[N+](=O)[O-]	.	-4	.

cpd	MT1-MMP act inh	MT1-MMP act inh RFP
65	2	0
66	-7	-8
67	-8	2
68	-2	-7
69	19	4
70	3	0
71	5	-1
72	1	1

Screening results (PubChem BioAssay)
